Screening data (PubChem)
Sa ugtP lethal = kills S. aureus RN4220 lacking UgtP. S. aureus RN4220 ugtP deletion, OD600 growth, 16 h; some inactives read as strong as hits. growth inhibition, % (test concentration not listed). actives 0.54% (n = 330,000). AID 1259309;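 active = z-score under -3 and OD600 up to 0.15 on both plates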;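 note: plate controls were untreated wells for no effect and antibiotic for full effect; wells of about 80 µL received 100 nL stock; the first replicate is given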
Sa RN4220 lethal = kills Staphylococcus aureus RN4220 | AID 1259311 | S. aureus RN4220 growth, OD600, 16 h | inhibition, % (no concentration beside the values) | actives 0.33% (n = 330,000);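 active = z-score of -3 or lower and OD600 up to 0.18 on both plates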;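 note: plate controls were untreated cells for no effect and reference antibiotic for full effect; stock transfer was 100 nL into about 80 µL; one replicate is shown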
PrP 5UTR inh = suppresses PrP 5' UTR mRNA reporter expression; inhibition, % (no concentration beside the values); cell-based PrP 5' UTR mRNA reporter, plate reader; AID 488862; actives 0.35% (n = 340,000);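 active = every replicate at 50% or more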;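 note: 0 = median of the neutral control wells; tested in H4 reporter cells; numbers are from one replicate; inactives centre near -14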
BJeLR lethal = kills HRASV12-expressing BJeLR cells. BJeLR (HRASV12) viability, CellTiter-Glo ATP luminescence, 48 h; reference of the scale not given here. actives 0.17% (n = 300,000). inhibition, % (test concentration not listed);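 active = replicate mean above 50%; inconclusive = above 50% but judged a plate artefact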;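 note: 50 nL library stock added to about 25 µL; numbers are from one replicate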
Autofluor counter = compound fluorescence in toxin protease inhibitor counterscreen; compound autofluorescence counterscreen, microsphere flow cytometry; active compounds read high; actives 3.1% (n = 360,000); fluorescence intensity (no concentration beside the values);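 active = at least 3 SD above the mean of all compounds, about 16000 in these data; inconclusive = too few beads counted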;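 note: 100 nL of 1 mM stock went into each well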
Mtb hypoxia rep = reduces hypoxia-regulated biosensor signal in M. tuberculosis | M. tuberculosis hypoxia-regulated fluorescent reporter, fluorescence | fluorescence inhibition, % (concentration not given with the values) | actives 0.1% (n = 300,000);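 active = 35 to 45% if threefold the growth effect, above 45% if 1.5-fold the growth effect; inactive = the rest, general growth blockers included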;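 note: wells of about 50 µL received 100 nL stock; 0% = vehicle wells and 100% = reference inhibitor wells; whole bacteria with a GFP reporter of the hypoxia response; strong numbers were not always called active; many hits fall short of the cut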
Mtb hypoxia rep growth = second read-out of Mtb hypoxia rep, no call of its own (marks repeat the call); growth inhibition, %; measured here: M. tuberculosis growth (absorbance);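 0% = vehicle and 100% = reference antibiotic; read after six days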
* = called active by the depositor; ? = inconclusive; / = not tested or not shown.

SMILES	Sa ugtP lethal	Sa RN4220 lethal	PrP 5UTR inh	BJeLR lethal	Autofluor counter	Mtb hypoxia rep	Mtb hypoxia rep growth
OCCNc1nc(-c2ccccc2)nc2ccccc12	7	5.1	-20	-8	4218	8	8
CCN1CCN(CCCN(Cc2ccco2)C(=S)Nc2ccc(Cl)cc2)CC1	2	5.8	-4	5	3331	10	13
CCOC(=O)C1CCN(C(=O)CCn2c(=O)[nH]c3ccccc3c2=O)CC1	0	-1.5	-23	-1	5737	5	5
COc1ccc(NC(=O)CN(C)C(=O)c2ccccc2Sc2ncnc3sc(C)c(C)c23)cc1	2	1.6	-6	1	?	-4	-5
C=CCn1c(=O)c(C(=O)NCCc2ccc(Cl)cc2)c(O)c2cc(OC)c(OC)cc21	3	3.1	-15	-1	4217	-2	-2
COc1cc(Nc2ccc(S(N)(=O)=O)cc2)c([N+](=O)[O-])nc1[N+](=O)[O-]	14	6.2	-2	-8	2956	6	2
O=C(c1ccc(Cl)c(Cl)c1)c1cnc(Nc2ccccc2)s1	9	0.0	-13	8	16510*	1	2
O=C(CCc1ccccc1)NC1(Cc2ccccc2)CCN(CCc2cccs2)C1=O (stereo not drawn)	2	2.1	-28	/	4387	0	3
Cc1ccc(C(=O)CSc2ncnc3ccccc23)o1	6	13	-74	/	2484	3	4
O=C(NN=Cc1cccnc1)c1cccc(S(=O)(=O)Nc2cccc(Cl)c2)c1	2	1.8	/	/	/	-4	4
O=C(COc1ccccc1)Nc1ccc(-c2ccc(N3CCOCC3)nn2)cc1	5	0.4	-46	-16	5444	-1	8
COCC(=O)N/N=C\c1ccc(OC/C=C/c2ccccc2)c(OC)c1	/	/	4	-1	?	/	/
COc1cc(Cl)c(C)cc1NC(=O)CSc1nnc(-c2cccnc2)n1Cc1ccco1	3	8.8	-23	-3	20722*	-2	6
O=C(CCC1COc2ccccc2O1)Nc1ccccn1 (stereo not drawn)	3	-1.2	-18	-3	4145	/	/
CC12CCC(=O)N1C(C(=O)N1CCN(S(=O)(=O)c3ccccc3F)CC1)CS2 (stereo not drawn)	4	2.2	-9	2	?	3	8
CCOC(=O)c1ccc(-n2c(CCC(=O)O)ccc2-c2cccs2)cc1	0	18	1	-4	5509	11	4
O=C(CSc1ccccn1)Nc1ccc2c(c1)oc1ccccc12	26	-11	-27	-13	2414	12	7
COc1ccc(CCN2C(=O)c3cccnc3C2=O)cc1OC	2	-3.4	-15	10	/	/	/
Cn1c(=O)c2c(ncn2CCCC(=N)N2CCOCC2)n(C)c1=O	4	9.8	-12	-15	4200	12	7
CC1=NN(/C(=N/c2nnc(C)s2)Nc2ccc(C)cc2)[C@H](c2ccc(C)cc2)S1	13	1.6	/	/	/	2	16
CCOC(=O)c1c(NC(=O)CC2Nc3cc(C)c(C)cc3NC2=O)sc(C)c1C (stereo not drawn)	2	-2.0	-7	-4	12294	5	-2
CCOP(=O)(O)c1ccccc1OCCOCCOc1ccccc1P(=O)(O)OCC	-4	3.4	-48	-7	11607	9	7
Cc1ccc(C)c(N2N=C(C(=O)Nc3ccccc3N3CCOCC3)CCC2=O)c1	-5	1.0	-3	/	3783	2	-4
Cc1ccc(OCc2cc(C(=O)N3CCN(C4CCCCC4)CC3)no2)cc1C	0	2.9	-64	6	5866	9	6
Cc1ccc(N2CCN(S(=O)(=O)c3ccc(C)cc3)CC2)cc1	13	4.1	-23	-1	4519	8	-3
CC(C)C[C@H](NC(=O)c1nc[nH]c1C(=O)NC(c1ccccc1)c1ccccc1)C(=O)OCc1ccccc1	/	/	-7	10	3479	/	/
CCC(=O)Nc1cccc(C2=NOC3(C2)CC(C(N)=O)N(C(=O)c2cc([N+](=O)[O-])cc([N+](=O)[O-])c2C)C3)c1 (stereo not drawn)	10	5.0	/	/	/	4	4
Cc1cccc(C)c1NC(=O)C1(N2CCN(C(=O)c3ccco3)CC2)CCCCC1	-4	3.8	-29	10	2371	3	6
CCc1nn(-c2cc(Oc3cccc4ccccc34)nc(-c3ccccc3)n2)c(N)c1C#N	-1	-14	-18	/	3279	11	6
Cc1c(NC(=O)/C(C#N)=C/c2c(N3CCCCC3)nc3ccccn3c2=O)c(=O)n(-c2ccccc2)n1C	10	2.5	-20	-12	3750	6	2
Cc1ccc(OCC(=O)NNC(=O)Cn2c(=O)cnc3ccccc32)cc1	1	2.0	-10	-5	5049	4	0
COc1ccc(NC(=O)c2cc(OC)c(OC)c(OC)c2)cc1S(=O)(=O)N1CCCCC1	-71	12	-13	7	4200	15	5
Nn1c(COc2ccccc2F)nnc1SCC(=O)NC1CCS(=O)(=O)C1 (stereo not drawn)	1	2.1	-19	-3	5140	0	-2
COc1ccc2nc3ccccc3nc2c1	1	4.6	-61	2	3700	/	/
O=C(Nc1ccccc1)Nc1cccn(Cc2c(F)cccc2Cl)c1=O	5	3.1	-37	6	4932	-8	10
COc1ccc(S(=O)(=O)NCC2CCCN(Cc3cn(C)nc3C)C2)cc1 (stereo not drawn)	8	5.5	-26	8	5995	1	4

Looked up above.
`Cc1cccc(C)c1NC(=O)C1(N2CCN(C(=O)c3ccco3)CC2)CCCCC1` in PrP 5UTR inh has -29
`O=C(Nc1ccccc1)Nc1cccn(Cc2c(F)cccc2Cl)c1=O` in PrP 5UTR inh has -37
`COc1ccc2nc3ccccc3nc2c1` in Autofluor counter has 3700

(further entries)
SMILES	Sa ugtP lethal	Sa RN4220 lethal	PrP 5UTR inh	BJeLR lethal	Autofluor counter	Mtb hypoxia rep	Mtb hypoxia rep growth
Cc1cc(S(=O)(=O)NCC(C)C)ccc1OCC(=O)NC1CC1	5	3.7	-17	-7	5975	9	-3
O=C(c1cccs1)N1CCN(C2CCCCC2)CC1	-8	1.0	-24	3	20556*	9	11
CCC(C)NCCCOc1ccc([N+](=O)[O-])cc1 (stereo not drawn)	1	-4.8	10	-8	2309	-7	-10
CC(C)CNC(=S)N(CCN(C)C)Cc1cc2cc3c(cc2[nH]c1=O)OCO3	-4	-1.1	-31	8	3968	-16	1
COc1ccc(N2CCN(CC(=O)Nc3nnc(-c4ccccc4)s3)CC2)cc1	9	3.1	-9	-1	?	/	/
CCCCCCCC[n+]1c(C)n(-c2ccccc2)c2ccc(NC(C)=O)cc21	0	4.7	-60	12	3849	4	8
Cc1cc(C)c(NC(=O)OCCN2CCOCC2)c(C)c1	-1	-0.8	-14	-6	4680	/	/
COCCOC(=O)c1c(NC(=O)CN(C)c2ccccc2)sc(C(N)=O)c1C	-3	-0.8	-28	-4	3267	3	-2
COc1ccc(C=NNC(=O)c2ccc(N)cc2)cc1Cn1cc([N+](=O)[O-])cn1	1	-1.3	/	/	/	0	-4
CCc1ccccc1NC(=O)c1cc(C)no1	5	3.2	-2	1	4019	4	-2
Cc1cccc(C(=O)Nc2ccnc(-c3cccnc3)n2)c1	9	15	-35	9	3347	8	4
COc1cccc(C(=O)OCCN2C(=O)c3ccccc3C2=O)c1OC	7	2.7	-17	7	3274	23	8

Among those listed so far, 3 have fluorine:
SMILES	Sa ugtP lethal	Sa RN4220 lethal	PrP 5UTR inh	BJeLR lethal	Autofluor counter	Mtb hypoxia rep	Mtb hypoxia rep growth
CC12CCC(=O)N1C(C(=O)N1CCN(S(=O)(=O)c3ccccc3F)CC1)CS2 (stereo not drawn)	4	2.2	-9	2	?	3	8
Nn1c(COc2ccccc2F)nnc1SCC(=O)NC1CCS(=O)(=O)C1 (stereo not drawn)	1	2.1	-19	-3	5140	0	-2
O=C(Nc1ccccc1)Nc1cccn(Cc2c(F)cccc2Cl)c1=O	5	3.1	-37	6	4932	-8	10

Next section
SMILES	Sa ugtP lethal	Sa RN4220 lethal	PrP 5UTR inh	BJeLR lethal	Autofluor counter	Mtb hypoxia rep	Mtb hypoxia rep growth
CCOc1cc(C(=O)NCc2ccco2)cc(OCC)c1OCC	/	/	-10	-7	4004	/	/
Cc1c(C(=O)NNC(=O)c2csc(N3CCOCC3)n2)oc2ccccc12	-3	2.3	-20	/	3838	-8	13
CCN(CC)Cc1nc2c(c(=O)[nH]1)C1(CCCCC1)Cc1ccccc1-2	39	-1.8	-6	-1	10805	10	11
C/C(=N\N1C(=O)c2ccccc2C1=O)c1cccc([N+](=O)[O-])c1	/	/	-19	9	2998	/	/
Cc1cc(NN=Cc2ccccc2)nc(N2CCOCC2)n1	5	2.5	/	/	/	-1	-3
O=C(OCC(=O)c1c[nH]c2ccccc12)c1cc2ccccc2cc1O	/	/	-31	2	11355	/	/
Cn1c2c(c(=O)n(C)c1=O)CN(CCc1ccccc1)CN2	-2	6.1	-22	-8	4349	-91	-21
COC(=O)c1c(NC(C)=O)sc2c1CCCC2	-6	2.3	-16	-1	4342	/	/
O=C(NNc1ccc(F)cc1F)C1CCC1	-3	-5.0	-24	-2	6010	-8	-7
COc1cccc(C=NNC(=O)C(C)Sc2ccccc2)c1 (stereo not drawn)	2	-1.9	/	/	/	-4	5
Cc1ccc(CN2CCN(CC(C)C)C(CCO)C2)s1 (stereo not drawn)	11	5.9	-52	3	2668	10	5
CC(C)Cn1c(SCC(=O)Nc2ccc3[nH]c(=O)[nH]c3c2)nc2ccccc2c1=O	0	1.0	-7	-8	/	0	5
O=[N+]([O-])c1ccc(N2CCC(=NOCc3ccc(Cl)cc3)CC2)cc1	-19	5.2	-8	-12	6171	2	12
CCOc1ccc(Cn2nnc(C(=O)Nc3cc(C)cc(C)c3)c2N)cc1	-4	4.6	-17	-13	6190	/	/
COc1cc2nc(=S)n3[nH]c(COc4ccccc4C)nc3c2cc1OC	10	1.9	-19	8	9438	20	0
Cc1cccc(C(=O)NNC(=O)c2ccc(Cl)cc2)c1O	4	-2.6	-45	-1	2818	/	/
Cc1cc(C)c(OCCNCc2ccccc2)c(C)c1	5	6.1	-26	-7	4377	10	8
O=c1oc2cc(O)ccc2c2oc3cc(O)ccc3c12	4	11	-22	-17	6693	-3	-1
CC1=NN(c2nc3ccccc3[nH]2)C(=O)/C1=C/N(C)C	8	1.0	-7	/	4410	5	10
O=C(CC1S/C(=N\S(=O)(=O)c2ccccc2)N(c2ccccc2)C1=O)Nc1ccc(F)cc1 (stereo not drawn)	/	/	-45	-4	1917	/	/
Cc1cccc(N2C(=O)C3C4C=CC(C5CC45)C3C2=O)n1 (stereo not drawn)	3	4.0	-18	1	5795	-6	5
Cc1ccc(NC(=O)c2ccccc2Br)cc1S(=O)(=O)N(C)C	1	6.4	-4	0	4779	-7	-6
O=C(CCl)N=c1sccn1Cc1ccccc1Cl	7	2.1	-17	110*	4674	/	/
CCCOc1ccc(Cc2c(O)nc(N)[nH]c2=O)cc1C	6	3.5	6	-8	3960	15	4

An excerpt from above, showing only Autofluor counter:
compound,Autofluor counter
Cc1cccc(C(=O)NNC(=O)c2ccc(Cl)cc2)c1O,2818
Cc1cc(C)c(OCCNCc2ccccc2)c(C)c1,4377

Going on with the list:
SMILES	Sa ugtP lethal	Sa RN4220 lethal	PrP 5UTR inh	BJeLR lethal	Autofluor counter	Mtb hypoxia rep	Mtb hypoxia rep growth
OCCCc1nc2ccccc2n1CCOc1ccccc1	-3	0.6	4	0	12420	-10	-5
O=C(NCCCN1CCCC1=O)c1ccccc1OCc1ccc(Cl)cc1Cl	8	1.3	10	/	3003	8	4
CC(C)(C)c1nnc(NC(=O)C2CCN(C(=O)c3ccco3)CC2)s1	6	0.5	-13	-5	4322	19	7
O=C1Nc2ccccc2/C1=C/c1ccnc2ccccc12	9	3.4	-21	5	3780	-2	0
